MT1-MMP act inh: blockers of MT1-MMP proenzyme processing, primary screen, HT1080 RFP-PRO-GFP cells, GFP/RFP fluorescence. Matrix metalloproteinase-14 (Homo sapiens), P50281. AID 651647, 2012. hit rate 0.061% among 360,000. GFP/RFP ratio change, % at 20 µM. GFP/RFP ratio fluorescence, overnight; percent of plate control window, DMSO zero;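 active = GFP/RFP ratio change of at least 30% with cell ATP level not reduced by more than half and red fluorescence within 50% of control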; note: strong numbers were not always called active
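Material – HT1080 RFP-PRO-GFP cells · Control set – DMSO wells and RFP-L50D-GFP cells · Incubation – overnight cell settling, then overnight compound exposure, 37 °C, 5% CO2 · Compound dosing – single-point 20 µM compound, 1% DMSO · Read-out – GFP/RFP fluorescence ratio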
UUG fidelity: modulators of yeast start codon fidelity, primary screen, whole organism, S. cerevisiae, single point, plate reader. S. cerevisiae UUG-firefly luciferase reporter, luminescence/redox ratio. activity score, % at 18.7 µM. hit rate 0.13% among 350,000. AID 602363, 2012;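 active = replicate mean at a twofold rise or more, about +100% in these data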;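 note: firefly luciferase made from a UUG start codon reports start codon fidelity; reporter light over untreated wells divided by growth signal over untreated wells; some hits fall short of that in this replicate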
MT1-MMP act inh RFP: further read-out of MT1-MMP act inh, marked with its call; RFP signal change, %; measured here: RFP expression control read;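 0 = vehicle wells; hits needed this value within 50% of zero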
An asterisk follows results filed as active; & = joins results of further samples. Not all compounds are listed (hit frequency here may not be typical).

Sample of the layout:
1) N#Cc1cccc(NS(=O)(=O)c2ccccc2Cl)c1
2) CC(=O)c1ccc(S(=O)(=O)NCCC(=O)OCC(=O)N(Cc2ccccc2)C(C)(C)C)cc1
3) C=CCN(c1ccccc1)S(=O)(=O)c1cccc(C(=O)N2CCN(c3ncccn3)CC2)c1
4) CC(=O)C1=CCC(c2cccc3ccccc23)N(S(=O)(=O)c2ccc(C)cc2)C1 (configuration not stated)
5) CNC(=O)C1CC(=O)N(c2ccc(OCC(=O)Nc3ccc(F)cc3)cc2)C1 (configuration not stated)
assay / compound | 1 | 2 | 3 | 4 | 5
MT1-MMP act inh | 7.4 | 2.1 | -2.4 | -2.0 | -1.5
MT1-MMP act inh RFP | 1.7 | 2.1 | -14.6 | -11.1 | 1.6
UUG fidelity | -3.4 | -10.4 | -9.1 | -22.7 | -10.9

This part in full, from the start:
1) N#Cc1cccc(NS(=O)(=O)c2ccccc2Cl)c1
2) CC(=O)c1ccc(S(=O)(=O)NCCC(=O)OCC(=O)N(Cc2ccccc2)C(C)(C)C)cc1
3) C=CCN(c1ccccc1)S(=O)(=O)c1cccc(C(=O)N2CCN(c3ncccn3)CC2)c1
4) CC(=O)C1=CCC(c2cccc3ccccc23)N(S(=O)(=O)c2ccc(C)cc2)C1 (configuration not stated)
5) CNC(=O)C1CC(=O)N(c2ccc(OCC(=O)Nc3ccc(F)cc3)cc2)C1 (configuration not stated)
assay / compound | 1 | 2 | 3 | 4 | 5
MT1-MMP act inh | 7.4 | 2.1 | -2.4 | -2.0 | -1.5
MT1-MMP act inh RFP | 1.7 | 2.1 | -14.6 | -11.1 | 1.6
UUG fidelity | -3.4 | -10.4 | -9.1 | -22.7 | -10.9

6) COc1ccc(CN(C)C(=O)c2cccc(S(=O)(=O)N3CCCc4ccccc43)c2)c(OC)c1OC
7) COc1cc(CCN(C(=O)c2cc3ccccc3[nH]2)C(C)c2nc3ccccc3[nH]2)cc(OC)c1 (configuration not stated)
8) Cc1cc(NC(=O)CN2C(=O)N(C)C3(CCCCC3)C2=O)ccc1Br
9) CCN(C(=O)COC(=O)c1c2c(nc3ccccc13)CCC2)c1c(N)n(Cc2ccccc2)c(=O)[nH]c1=O
10) COCCCNC(=O)C[C@H]1C[C@H](C(=O)N2CCOCC2)[C@@]2(C)c3[nH]c4cc(CCC(=O)N(C)C)ccc4c3CCN2C1=O
assay / compound | 6 | 7 | 8 | 9 | 10
MT1-MMP act inh | -4.3 | -1.2 | -2.6 | -10.5 | -0.7
MT1-MMP act inh RFP | -15.8 | -6.7 | 0.9 | -4.5 | 1.9
UUG fidelity | 10.6 | -8.7 | -40.0 | -4.5 | -13.7

Looked up above:
In MT1-MMP act inh, COc1ccc(CN(C)C(=O)c2cccc(S(=O)(=O)N3CCCc4ccccc43)c2)c(OC)c1OC has -4.3
In UUG fidelity, COc1cc(CCN(C(=O)c2cc3ccccc3[nH]2)C(C)c2nc3ccccc3[nH]2)cc(OC)c1 (configuration not stated) has -8.7
In MT1-MMP act inh, COCCCNC(=O)C[C@H]1C[C@H](C(=O)N2CCOCC2)[C@@]2(C)c3[nH]c4cc(CCC(=O)N(C)C)ccc4c3CCN2C1=O has -0.7
In MT1-MMP act inh, Cc1cc(NC(=O)CN2C(=O)N(C)C3(CCCCC3)C2=O)ccc1Br has -2.6

(list continues)
11) O=C(Nc1cccc(S(=O)(=O)N2CCCC2)c1)[C@@H]1O[C@H](CO)[C@@H](O)[C@H]1O
12) CC1NC(=O)c2cc3ccccc3cc2-n2c1nc1cc(F)ccc1c2=O (configuration not stated)
13) CC[C@]12c3[nH]c4ccc(OC)cc4c3CCN1C(=O)C(CC(=O)NCc1ccc(OC)c(OC)c1)C[C@@H]2C(=O)N1CCN(C(=O)C2CC2)CC1 (some centres not stated)
14) CC(C)N(Cc1nnc(-c2ccccc2Cl)o1)C(=O)COc1cccc(Cl)c1
15) CCCCN(C(=O)c1cccc(N2C(=O)c3ccccc3C2=O)c1)c1c(N)n(CCCC)c(=O)[nH]c1=O
assay / compound | 11 | 12 | 13 | 14 | 15
MT1-MMP act inh | 3.7 | 1.6 | 3.8 | -1.6 | 0.8
MT1-MMP act inh RFP | 0.9 | 1.3 | 2.1 | -3.7 | 1.1
UUG fidelity | -10.2 | -4.4 | -4.0 | 14.7 | 29.8

16) COc1cc2c(c(O)c1OC)C1Cc3ccc(OC)c(OC)c3CN1CC2 (configuration not stated)
17) O=C(N[C@@H]1C/C=C\C[C@@H](CC(=O)N(CCO)Cc2ccccc2)C(=O)NCCOC1=O)OCC1c2ccccc2-c2ccccc21
18) C[C@H](CO)N1C[C@H](C)[C@@H](CN(C)S(=O)(=O)c2cn(C)cn2)OCc2cn(nn2)CCCC1=O
19) CCOC(=O)c1oc2cc(O)cc(C)c2c1C
20) C[C@@H]1CN([C@@H](C)CO)C(=O)c2cc(NC(=O)Nc3ccccc3)ccc2O[C@@H](C)CCCCO[C@H]1CN(C)C(=O)Nc1ccc(C(F)(F)F)cc1
assay / compound | 16 | 17 | 18 | 19 | 20
MT1-MMP act inh | -2.8 | 3.6 | -2.7 | 6.0 | 5.6
MT1-MMP act inh RFP | 0.3 | 1.6 | 5.0 | -0.8 | 2.3
UUG fidelity | -5.0 | -11.8 | -13.2&-5.8 | -12.6 | -7.1

21) CC(=O)C1=CCC(c2ccccc2)N(S(=O)(=O)c2ccc(C)cc2)C1 (configuration not stated)
22) CCCCC(c1nc2ccccc2[nH]1)N(C(=O)c1ccccc1)c1ccccc1[N+](=O)[O-] (configuration not stated)
23) COc1cc(OC)cc(C(=O)NNC(=O)CCc2nc3ccccc3c(=O)[nH]2)c1
24) Cc1noc(C)c1COc1ccccc1C(=O)N(C)Cc1ccc(F)cc1
25) CN(CCOc1ccc(Cl)cc1)C(=O)c1cccc(S(=O)(=O)N2CCN(c3ccc(F)cc3)CC2)c1
assay / compound | 21 | 22 | 23 | 24 | 25
MT1-MMP act inh | -1.0 | -4.8 | 0.2 | -2.1 | 1.1
MT1-MMP act inh RFP | -2.1 | -5.0 | 2.0 | -4.6 | -33.3
UUG fidelity | -10.2 | -14.3 | -1.6 | -5.1 | -2.7

26) COC(=O)N(C)C[C@H]1OCc2cnnn2CCCC(=O)N([C@@H](C)CO)C[C@H]1C
27) CC(=O)OCC1=C(C(=O)O)N2C(=O)C(NC(=O)CC(C)c3ccccc3)C2SC1 (configuration not stated)
28) Cc1cc(C)cc(-c2nnc(SCC(=O)Nc3cc(C)on3)o2)c1
29) CN(C)C(=O)c1ccc(NC(=O)COC(=O)CCN=C2NS(=O)(=O)c3ccccc32)cc1
30) CCN(CC)C(=O)C(c1ccccc1)S(=O)(=O)N1CCOCC1 (configuration not stated)
assay / compound | 26 | 27 | 28 | 29 | 30
MT1-MMP act inh | 1.7 | -3.5 | 2.9 | -6.2 | -3.6
MT1-MMP act inh RFP | 4.4 | -0.2 | 5.5 | -3.9 | -1.7
UUG fidelity | -11.4&-13.4 | -3.2 | -23.4 | 4.2 | 8.8

31) CC(C)C(=O)N1CCC1(C)C(=O)Nc1ccc2[nH]ccc2c1 (configuration not stated)
32) Cc1ccc(C)c(NC(=O)COC(=O)CNC(=O)C2CCCCC2)c1
33) Cc1ccc(CNC(=O)c2[nH]c(C(F)(F)F)nc2-c2ccccc2)cc1
34) COc1cc(C(=O)Nc2ccc(C(=O)c3ccncc3)cc2)cc(OC)c1OC
35) COc1cccc(NC(=O)CN(C)CC(=O)Nc2ccc(C)c(S(=O)(=O)N3CCOCC3)c2)c1
assay / compound | 31 | 32 | 33 | 34 | 35
MT1-MMP act inh | 2.8 | 3.2 | 1.0 | 0.9 | -0.3
MT1-MMP act inh RFP | 3.1 | 2.7 | -0.5 | -3.5 | -4.9
UUG fidelity | -14.3 | -7.2 | -2.4 | -5.7 | -0.8

36) CN(C)S(=O)(=O)c1cc(C(=O)Nc2ccn(C)n2)c(Cl)cc1Cl
37) COc1ccc(OC)cc1
38) CC(C)CCN1CCC(CN2C(=S)NC[C@@H]2Cc2ccccc2)CC1
39) CC(OC(=O)CNC(=O)c1ccc(Br)cc1)C(=O)NC1CCCCC1C (configuration not stated)
40) CCCC(=O)N1CCC1(C)C(=O)NS(=O)(=O)c1ccc(F)cc1F (configuration not stated)
assay / compound | 36 | 37 | 38 | 39 | 40
MT1-MMP act inh | -1.3 | 3.7 | 1.7 | -1.0 | -1.4
MT1-MMP act inh RFP | -3.3 | 4.8 | 5.0 | 4.1 | 5.6
UUG fidelity | -24.2 | -16.2 | -0.2 | -13.7 | -13.7

41) O=C(CNC(=O)c1ccc(Cl)cc1)OCCN1C(=O)c2ccccc2C1=O
42) COC1OC2COC(c3ccccc3)OC2C(O)C1NC(C)=O (configuration not stated)
43) CCCc1cc(=O)[nH]c(SCC(=O)NC2(C#N)CCCCC2)n1
44) COc1ccc(-c2cc3nc(-c4ccccc4)cc(N4CCN(C(C)=O)CC4)n3n2)cc1
45) Cc1cc(OCC(=O)OCC(=O)Nc2cccnc2Cl)ccc1Cl
assay / compound | 41 | 42 | 43 | 44 | 45
MT1-MMP act inh | 2.5 | -2.0 | 0.1 | 0.6 | 3.3
MT1-MMP act inh RFP | -0.1 | 2.4 | 1.4 | -7.5 | 2.5
UUG fidelity | -20.7 | -18.6 | -14.3 | 3.5 | -10.7

46) CN(Cc1ccc(Cl)cc1Cl)C(=O)Cc1ccc(S(=O)(=O)N2CCOCC2)s1
47) CCCCCCCCNS(=O)(=O)CCNCc1ccco1
48) COc1ccccc1CNS(=O)(=O)CCNC1CCCCC1
49) O=C(NN=Cc1ccccc1O)C1CC1
50) O=C(CN1CCN(c2ccc(F)cc2)CC1)N(C1CCCC1)C1CCS(=O)(=O)C1 (configuration not stated)
assay / compound | 46 | 47 | 48 | 49 | 50
MT1-MMP act inh | -3.5 | 0.5 | 4.4 | 2.4 | 0.9
MT1-MMP act inh RFP | -2.9 | 3.2 | 3.2 | 0.7 | 0.5
UUG fidelity | -6.3 | -15.0 | -28.0 | -9.1 | -10.3

51) COc1ccc(NC(=O)c2cccc(S(=O)(=O)NCc3ccccc3)c2)cc1S(N)(=O)=O
52) O=C(NC1CC1)c1cccc(S(=O)(=O)N2CCOCC2)c1
53) C[C@@H]1CN([C@H](C)CO)C(=O)CCCn2nncc2CO[C@H]1CN(C)C(=O)Nc1ccc2c(c1)OCO2
54) Cc1cccc(NC(=O)CNC(=O)c2cn(Cc3ccccc3)nc2-c2cccnc2)c1C
55) CC(C)(C)c1ccc(CC(=O)N2CCC2(C)C(=O)NS(=O)(=O)c2cccs2)cc1 (configuration not stated)
assay / compound | 51 | 52 | 53 | 54 | 55
MT1-MMP act inh | -3.7 | 1.6 | 4.4 | -3.0 | 2.3
MT1-MMP act inh RFP | 4.6 | 2.2 | 10.2 | 1.5 | 5.3
UUG fidelity | -13.3 | -0.3 | -15.4&18.5 | -7.3 | 0.1

56) CC1CCCC(C)N1C(=O)/C=C/c1ccc(S(=O)(=O)N2CCOCC2)cc1 (configuration not stated)
57) Nc1ccc2c(c1)C(=O)c1cc(N)c(Cl)cc1-2
58) Cc1ccc(OCCC(=O)Nc2ccc(C)c(S(=O)(=O)N3CCOCC3)c2)cc1
59) Cc1ccccc1C(NC(=O)C1CCN(Cc2ccc(Oc3ccccc3)cc2)CC1)c1ccsc1 (configuration not stated)
60) CCCCNCCS(=O)(=O)NCc1ccc(OC)cc1
assay / compound | 56 | 57 | 58 | 59 | 60
MT1-MMP act inh | 2.0 | 3.9 | 5.8 | -1.7 | 1.3
MT1-MMP act inh RFP | 0.9 | -1.3 | -6.8 | -6.5 | 1.8
UUG fidelity | 5.0 | -8.3 | -2.9 | -1.9 | 3.3

61) CCOc1ccc(N(C)S(=O)(=O)c2ccc(C)c(C(=O)Nc3nnc(C4CC4)s3)c2)cc1
62) O=C(Nc1ccccc1OC(F)F)c1ccc(S(=O)(=O)N2CCCC2)cc1
63) CC(=O)Nc1c(Cl)cc2c(c1Cl)C(=O)c1ccccc1-2
64) COCOCCn1cc(CN2CCS(=O)(=O)N(Cc3ccc(-c4ccc(F)cc4)cc3)C(CC(C)C)C2=O)nn1 (configuration not stated)
65) Nc1ncccc1C(=O)OCC(=O)NC1CCCCCC1
assay / compound | 61 | 62 | 63 | 64 | 65
MT1-MMP act inh | 3.2 | 0.2 | 3.5 | -1.2 | -14.4
MT1-MMP act inh RFP | -1.2 | -1.0 | -0.7 | -9.3 | 0.3
UUG fidelity | -7.1 | -0.1 | -16.4 | -2.9 | -4.5

66) O=C(NCCc1c[nH]c2ccccc12)c1[nH]c(C(F)(F)F)nc1-c1ccccc1
67) CC1CC(C)CN(C(=O)COC(=O)c2ccc3ncsc3c2)C1 (configuration not stated)
68) COc1ccc(CCNC(=O)c2cccc(S(=O)(=O)N3CCCC3)c2)cc1OC
69) CCCOc1ccc(C(=O)Nc2cc(S(=O)(=O)N3CCOCC3)ccc2N2CCOCC2)cc1
assay / compound | 66 | 67 | 68 | 69
MT1-MMP act inh | 1.2 | 10.6 | -0.6 | -5.6
MT1-MMP act inh RFP | -1.9 | 0.9 | -3.1 | -2.8
UUG fidelity | 9.1 | 4.9 | -5.0 | 5.6

Screening data as filed in PubChem.
